Source: PubChem
TRPV1 PAM: enhances activation of the human vanilloid receptor TRPV1. Q8NER1. actives 0.02% (n = 320,000). TRPV1-expressing cells, Fluo-8 calcium influx, capsaicin EC20 potentiation; host cell line not named in the record; control for the full effect not named in the record. potentiation, % at 8.33 µM. AID 540277; active means potentiation above 80%; inconclusive means 30% to 80%; inactive means below 30%; also: 0% is about no effect
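Cells expressing TRPV1 were dye-loaded with Fluo-8 and read kinetically: 10 s baseline, 3 min after compound (agonist portion), then 2 min after EC20 capsaicin (allosteric enhancer portion). Calcium-bound dye fluorescence at 480/520 nm.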
TRPML1 inh: blocks the human TRPML1 channel | Q9GZU1 | TRPML1-inducible cells, Ca2+ dye fluorescence, FDSS; active compounds read low; inhibition of EC80 agonist-evoked calcium signal | activity change, negative = inhibition, % (test concentration not listed) | actives 0.02% (n = 390,000) | AID 624415; in the data active means activity change below about -50%; inconclusive means about -30% to -50%; inactive means above about -30%;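 also: stimulus is agonist 54-4 at its EC80 concentration; % is scaled to controls: 0 for no effect and ±100 for the full control effect; compound concentration not given in the record; the text of the record puts the active cut at -80%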
Target sequence (Q9GZU1 whole entry, looked up): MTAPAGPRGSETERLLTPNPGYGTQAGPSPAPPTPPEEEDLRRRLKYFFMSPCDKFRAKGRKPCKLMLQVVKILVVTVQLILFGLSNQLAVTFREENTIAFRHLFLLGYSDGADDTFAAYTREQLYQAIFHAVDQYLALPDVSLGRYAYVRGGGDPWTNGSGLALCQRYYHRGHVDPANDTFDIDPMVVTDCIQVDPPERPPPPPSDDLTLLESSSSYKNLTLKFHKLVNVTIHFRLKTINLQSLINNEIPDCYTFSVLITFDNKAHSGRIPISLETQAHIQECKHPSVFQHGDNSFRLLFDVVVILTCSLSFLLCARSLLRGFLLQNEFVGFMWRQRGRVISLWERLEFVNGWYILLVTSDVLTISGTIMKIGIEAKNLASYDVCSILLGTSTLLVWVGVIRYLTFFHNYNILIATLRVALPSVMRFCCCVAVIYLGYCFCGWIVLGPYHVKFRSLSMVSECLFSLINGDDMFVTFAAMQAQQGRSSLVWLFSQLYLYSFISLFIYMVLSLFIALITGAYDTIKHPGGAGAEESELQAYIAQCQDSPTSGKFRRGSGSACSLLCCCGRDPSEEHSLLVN
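Calcium fluorescence in TRPML1-DL cells induced overnight with Tet: a 110 s read after compound pin addition, then a 110 s antagonist read after challenge with 54-4 at 4 uM final (EC80).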
D2 potentiator: positive allosteric modulators of human D2 dopamine receptor. P14416. actives 0.23% (n = 360,000). AID 624464. potentiation, % (test concentration not listed). DiscoveRx D2 beta-arrestin cells, luminescence, 90 min; 100% = 57 uM dopamine signal; active = potentiation of 50% or more; inconclusive = 30% to 50%; inactive = 30% or less;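 also: compound concentration not given in the record; tested on top of an EC20 dose of dopamine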
Target sequence (P14416 whole entry, looked up): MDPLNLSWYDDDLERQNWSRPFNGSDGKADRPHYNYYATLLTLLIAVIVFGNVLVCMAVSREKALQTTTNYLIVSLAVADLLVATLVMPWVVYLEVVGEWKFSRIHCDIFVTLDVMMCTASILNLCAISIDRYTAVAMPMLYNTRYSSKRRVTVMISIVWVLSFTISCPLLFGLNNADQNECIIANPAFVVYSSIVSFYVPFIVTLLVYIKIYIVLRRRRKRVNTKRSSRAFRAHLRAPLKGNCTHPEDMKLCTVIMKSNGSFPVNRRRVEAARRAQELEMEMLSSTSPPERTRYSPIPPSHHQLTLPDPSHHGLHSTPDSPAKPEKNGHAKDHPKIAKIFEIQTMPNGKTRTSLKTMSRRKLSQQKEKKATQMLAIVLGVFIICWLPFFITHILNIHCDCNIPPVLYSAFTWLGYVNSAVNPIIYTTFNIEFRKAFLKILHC
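D2 cells co-treated with compound plus 50 nM dopamine (EC20) for 90 min at 37 deg C to detect potentiation. Beta-arrestin recruitment was read as enzyme-fragment luminescence after 1 h at ambient temperature. Full response was set by 57 uM dopamine.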
Six1-Eya2 inh: Six1/Eya2 interaction inhibition; AlphaScreen GST-Six1/His-Eya2 binding, biochemical; active compounds read low; control for the full effect not named in the record; activity change, % (test concentration not listed); actives 0.56% (n = 360,000); in the data active = activity change below about -65%; inconclusive = about -30% to -65%; inactive = above about -30%; also: % is scaled to controls: 0 for no effect and ±100 for the full control effect
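Compounds are tested against tagged Six1 and Eya2 proteins bridged by glutathione donor and nickel acceptor beads; after a one-hour incubation at 37 °C without light, AlphaScreen emission is recorded.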
TRPML1 agonist: activates the human TRPML1 channel; TRPML1-expressing cells, Ca2+ dye fluorescence, FDSS; host cell line not named in the record; reference of the full effect not given here; activation, % (no concentration beside the values); actives 0.12% (n = 410,000); in the data active = activation above about 50%; inconclusive = about 30% to 50%; inactive = below about 30%; also: 0% is about no effect; the text of the record puts the active cut at 80%
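Tet-induced TRPML1-DL cells, 1,500 per well, cultured overnight, were loaded with a no-wash Ca2+ dye for 45–90 min. Calcium fluorescence was recorded on the FDSS for 110 s after compound addition, before the EC80 agonist (4 uM 54-4) was added.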
CtBP-E1A inh: blocks the CtBP interaction with E1A; actives 0.49% (n = 340,000); AlphaScreen GST-E1A/His-CtBP binding, 1536-well; active compounds read low; control for the full effect not named in the record; AID 651724; activity change, % (test concentration not listed); in the data active means activity change below about -65%; inconclusive means about -30% to -65%; inactive means above about -30%; also: % is scaled to controls: 0 for no effect and ±100 for the full control effect
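Homogeneous bead-based format: GST-tagged E1A captured on glutathione donor beads, His-tagged CtBP on nickel acceptor beads; compounds precede bead addition by 2 h at 37 °C.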
Active calls of the source: *; ? = inconclusive; . = no result given.

Codes – A = TRPV1 PAM; B = TRPML1 inh; C = D2 potentiator; D = Six1-Eya2 inh; E = TRPML1 agonist; F = CtBP-E1A inh
COCC(=O)Nc1ccc([N+](=O)[O-])cc1C
  A: -1.9	B: -2.8	C: -15.8	D: 3.8	E: 0.8	F: 5.3
Cc1ccc(C(=O)N/C(=C\c2ccc(F)cc2)C(=O)NCc2ccncc2)cc1
  A: -21.8	B: -1.8	C: -7.1	D: -5.8	E: 0.0	F: -2.9
Cc1ccc(C)c(-c2nnc(NC(=O)CS(=O)(=O)c3ccccc3)o2)c1
  A: 16.6	B: -0.7	C: -20.7	D: -29.4	E: 0.3	F: 3.1
CN(C)CCOCCP(=O)(c1ccccc1)c1ccccc1
  A: 1.7	B: 1.4	C: -7.8	D: 7.3	E: -0.4	F: 2.3
COc1ccc(Cn2nnc(C(=O)Nc3ccc4c(c3)OCCO4)c2N)cc1Br
  A: 16.5	B: 24.0	C: -6.0	D: -12.8	E: 2.2	F: -19.0
C[C@H](NC(=O)c1ccc(Cl)c(S(=O)(=O)N2CCOCC2)c1)c1nc2ccccc2[nH]1
  A: 6.5	B: 8.1	C: -32.1	D: 22.0	E: -1.5	F: .
O=C(NC1CCCC1)C(Cc1ccccc1)n1cccc1 (stereo not given)
  A: -7.2	B: -5.6	C: -8.9	D: -4.7	E: 0.1	F: 5.4
O=C(/C=C/c1c(F)cccc1Cl)NCc1ccc2c(c1)OCO2
  A: 5.1	B: -2.3	C: -4.7	D: -0.7	E: 0.2	F: 2.6
CCOc1ccccc1N(CC(=O)Nc1cccc(OC)c1)S(=O)(=O)c1ccccc1
  A: -10.9	B: 32.9	C: 4.8	D: -5.2	E: 0.5	F: 4.6
Cc1cccc(-n2c(CNC(=O)c3cccc([N+](=O)[O-])c3C)n[nH]c2=S)c1
  A: -11.0	B: 21.4	C: -8.2	D: 7.3	E: 0.1	F: 9.0
CC(=O)Nc1cc(C(=O)N2CCCC2)ccc1S(=O)(=O)c1ccc(Cl)cc1
  A: -20.7	B: 7.8	C: 0.5	D: 2.7	E: -0.3	F: 1.2
COc1ccc(-c2nsc(C(=O)N(c3ccc(F)cc3)C(C(=O)NC3CCCC3)c3ccc(OC)cc3)c2N)cc1 (stereo not given)
  A: -9.9	B: 9.3	C: 2.7	D: 1.0	E: 0.0	F: 5.7
CCCc1c(C)nc2c(Br)cccc2c1Cl
  A: 5.0	B: -1.0	C: -3.4	D: 17.9	E: 0.7	F: .
COc1ccccc1CNc1nc(NC(C)C)nc2ccsc12
  A: .	B: .	C: -11.1	D: 4.6	E: -1.1	F: -17.0
CN(CCC#N)C(=O)COC(=O)c1nn(-c2ccccc2)c(=O)c2ccccc12
  A: 0.3	B: 3.2	C: -1.5	D: -2.2	E: 0.3	F: -3.1
C[C@H](NC(=O)c1nc[nH]c1C(=O)N[C@@H](C)C(=O)OC(C)(C)C)C(=O)OCc1ccccc1
  A: -8.4	B: 16.7	C: -6.6	D: 0.6	E: 2.1	F: 6.9
C[C@@]12C(=O)N(c3ccc(C(F)(F)F)cc3)C(=O)N1[C@@H]1c3ccccc3OC[C@@H]1[C@H]2c1ccccc1
  A: 10.2	B: 17.9	C: -4.9	D: -3.2	E: -0.9	F: 2.7
O=c1c2ccccc2nc2n1CCN2
  A: 0.2	B: -14.9	C: 4.8	D: -0.5	E: 0.4	F: 0.0
O=C(Nc1cccc(F)c1)N1CCC(n2c(=O)[nH]c3ccccc32)CC1
  A: 17.5	B: -6.7	C: -4.4	D: 7.1	E: 0.1	F: -15.6
Cc1nn(-c2ccccc2)c2[nH]c(=O)c(CNCCN3CCOCC3)cc12
  A: 8.1	B: 13.4	C: -8.5	D: -13.9	E: -0.5	F: -7.9
COc1ccc2c(CC(=O)Nc3cccc(S(=O)(=O)N4CCOCC4)c3)coc2c1
  A: -8.6	B: 8.8	C: -19.8	D: -13.5	E: -0.9	F: 4.3
CCc1cc(C(=O)c2ccc(OC)cc2)c(N)s1
  A: 17.8	B: -0.3	C: -8.4	D: -13.2	E: 1.3	F: -11.7
Cc1ccc(NC(=O)CCNS(=O)(=O)c2cc(Br)cnc2N)cc1Cl
  A: 9.9	B: 10.8	C: -2.9	D: 2.2	E: -0.2	F: -8.3
COc1cc(/C=C2/SC(=S)N(CC(=O)O)C2=O)ccc1OC(=O)c1cccs1
  A: 12.2	B: 5.2	C: -13.3	D: -12.1	E: 0.1	F: ?
Cc1ccccc1N1CCN(C2CCCN(C(=O)c3cn4c(C)cccc4n3)C2)CC1 (stereo not given)
  A: 8.5	B: -2.4	C: -17.8	D: -4.1	E: 1.5	F: .
CCC(=O)c1ccc(OCC(=O)NCCc2ccccn2)cc1
  A: -3.7	B: 0.6	C: 1.2	D: 16.9	E: -0.8	F: 0.0
CCOCCOC(=O)C1=C(C)Nc2ccc(C)cc2S1
  A: -1.4	B: 2.4	C: -13.1	D: -16.9	E: -0.3	F: -12.5
COc1cccc2c3c(c(C)nc12)CC(C)O3 (stereo not given)
  A: -2.5	B: -22.3	C: -13.8	D: 1.8	E: 0.1	F: 0.9
CCc1sc(C(=O)Nc2nc(-c3ccccn3)cs2)cc1C
  A: .	B: -11.0	C: -14.0	D: -67.5*	E: 0.7	F: -89.7*
Cc1ccc(OCC(=O)c2c(N)n(C)c(=O)n(C)c2=O)c([N+](=O)[O-])n1
  A: -2.7	B: 5.7	C: -1.8	D: ?	E: 0.8	F: -12.4
CCOc1ccc(CN(C)C(=O)CNC(=O)c2ccc(Br)o2)cc1OC
  A: -0.9	B: -1.7	C: -1.4	D: 0.0	E: 0.3	F: 0.0
COc1cc(C(=O)NC(=S)Nc2cccc(-c3cc4ccccc4oc3=O)c2)cc(OC)c1OC
  A: 18.4	B: 36.2	C: -5.9	D: 0.5	E: 0.1	F: -11.0
Cc1ccc(OCC(=O)NCCCNC(=O)c2ccncc2)cc1
  A: 4.0	B: -4.3	C: -1.1	D: 9.2	E: -0.2	F: 3.3
O=C(NCCCO)C(=O)Nc1cc2c3c(c1)CCN3C(=O)CC2
  A: ?	B: -4.4	C: -5.3	D: 2.1	E: 0.4	F: .
CC(C)C[C@H](NC(=O)[C@@H]1Cc2c([nH]c3ccccc23)C2c3ccccc3C(=O)N21)C(=O)N1CCC[C@@H]1C(=O)O (stereo not given in full)
  A: -6.7	B: .	C: -26.4	D: -5.3	E: .	F: -17.3
CCN(C(=O)CSc1nc2cc(C(=O)OC)ccc2c(=O)n1Cc1ccco1)c1cccc(C)c1
  A: ?	B: -11.1	C: -9.9	D: -0.1	E: 0.2	F: -1.5
CN(CC(=O)Nc1ccc(F)c(F)c1F)C(=O)c1ccc2c(c1)S(=O)(=O)N=C1CCCCCN12
  A: -6.5	B: 17.6	C: 3.8	D: 1.6	E: 3.4	F: -18.4
CCOCCCNC(=O)C(c1ccc(Cl)cc1)N1CCC2(CC1)OCCO2 (stereo not given)
  A: -13.1	B: -12.8	C: -14.6	D: 3.4	E: 0.1	F: 0.7
C[C@@H]1CN([C@H](C)CO)C(=O)CCCn2nncc2CO[C@@H]1CN(C)S(=O)(=O)c1ccccc1F
  A: .	B: 20.2	C: -10.0	D: -10.8	E: 0.4	F: -5.6
O=C1c2c([N+](=O)[O-])cc([N+](=O)[O-])cc2S(=O)N1Cc1ccccc1 (stereo not given)
  A: -5.0	B: -5.8	C: 4.8	D: -4.2	E: 0.3	F: -4.9
O=C(CCN1C(=O)c2ccccc2C1=O)OCN1C(=O)c2ccccc2C1=O
  A: -7.7	B: 29.2	C: 3.7	D: 4.4	E: -0.6	F: 2.4
Cc1ccc(S(=O)(=O)NC(=O)C2(C)CCN2C(=O)Cc2cccs2)nc1 (stereo not given)
  A: .	B: .	C: -4.3	D: 13.1	E: 0.0	F: 6.5
Cc1ccc(NC(=O)C2C3CCCC2C3c2ccccc2)cc1 (stereo not given)
  A: -6.4	B: -17.5	C: -1.7	D: 13.6	E: 0.8	F: 8.9
CN(C)C/C=C/C(=O)Nc1cccc(-c2c[nH]c3ncnc(Oc4ccc(NC(=O)CC(=O)Nc5ccc(F)cc5)cc4F)c23)c1
  A: .	B: -9.6	C: -25.9	D: 1.3	E: 0.0	F: -0.4
O=C1NC(c2ccc(Br)cc2)Nc2sc3c(c21)CCC3 (stereo not given)
  A: 10.5	B: -1.1	C: -2.7	D: -9.4	E: 0.3	F: 5.1
CCN(CC)C(=O)CSc1nc2ccc(NC(=O)CSc3nnc(COc4ccccc4C)n3C)cc2s1
  A: 0.5	B: -9.0	C: 8.6	D: -17.0	E: 0.2	F: -1.8
Cc1ccc(S(=O)(=O)N(CC(=O)N2CCC(C(N)=O)CC2)c2cccc(C(F)(F)F)c2)cc1
  A: -27.6	B: -3.7	C: -2.2	D: 4.3	E: 0.5	F: 7.8
O=C(O)C1CCC(c2ccc(-c3ccccc3)cc2)CC1 (stereo not given)
  A: -13.1	B: 7.7	C: -3.5	D: 4.6	E: -0.1	F: 4.1
CC1CCCC(C)N1C(=O)CSc1ncccn1 (stereo not given)
  A: -10.9	B: -10.4	C: -1.2	D: 7.0	E: 1.3	F: 2.2
COc1ccc(NC(=O)CC(c2ccc(F)cc2)c2ccc(OC(C)C)cc2)cc1 (stereo not given)
  A: -16.9	B: -0.5	C: -26.0	D: 8.1	E: 2.9	F: 3.8

CtBP-E1A inh: hit marks shown above
structure | TRPML1 inh | D2 potentiator | Six1-Eya2 inh | CtBP-E1A inh
CCc1sc(C(=O)Nc2nc(-c3ccccn3)cs2)cc1C | -11.0 | -14.0 | -67.5* | -89.7*

Back to the main list; the five compounds before the break are reprinted first.
smiles,TRPV1 PAM,TRPML1 inh,D2 potentiator,Six1-Eya2 inh,TRPML1 agonist,CtBP-E1A inh
CCN(CC)C(=O)CSc1nc2ccc(NC(=O)CSc3nnc(COc4ccccc4C)n3C)cc2s1,0.5,-9.0,8.6,-17.0,0.2,-1.8
Cc1ccc(S(=O)(=O)N(CC(=O)N2CCC(C(N)=O)CC2)c2cccc(C(F)(F)F)c2)cc1,-27.6,-3.7,-2.2,4.3,0.5,7.8
O=C(O)C1CCC(c2ccc(-c3ccccc3)cc2)CC1 (stereo not given),-13.1,7.7,-3.5,4.6,-0.1,4.1
CC1CCCC(C)N1C(=O)CSc1ncccn1 (stereo not given),-10.9,-10.4,-1.2,7.0,1.3,2.2
COc1ccc(NC(=O)CC(c2ccc(F)cc2)c2ccc(OC(C)C)cc2)cc1 (stereo not given),-16.9,-0.5,-26.0,8.1,2.9,3.8
Cc1ccc(N2CCN(CC(O)COc3ccc([N+](=O)[O-])cc3)CC2)cc1 (stereo not given),6.7,8.7,-9.2,-4.9,-0.2,2.7
O=C(CSc1nnc(C2CC2)n1C1CC1)c1ccc(Br)s1,.,21.4,20.5,-4.7,0.4,7.0
CCN(C[C@H]1N[C@@](CC)(C(=O)OC)[C@H]2C(=O)N(Cc3ccccc3)C(=O)[C@@H]12)C(=O)COc1ccccc1,.,4.8,3.5,0.2,1.8,-0.3
Cc1ccnc(N2C3CCC2CC(O)(c2ccccc2)C3)n1 (stereo not given),-22.5,-4.7,2.0,6.9,0.4,0.9
CCOc1ccc(CN(C)C(=O)CNC(=O)c2sc3ccccc3c2Cl)cc1,4.9,6.8,-0.5,4.2,-0.8,.
Cc1cccnc1NC(=O)Nc1cccc(F)c1,.,8.4,-13.9,8.1,-0.3,-6.2
O=C(c1ccco1)N1CCN(C(=O)c2ccc(-c3ccc([N+](=O)[O-])cc3)o2)CC1,.,-8.5,-2.1,-14.8,0.4,5.0
COC(=O)C1=C(C)N(C)C(=S)NC1c1ccc(OC)cc1OC (stereo not given),7.7,-9.8,-1.2,-5.7,1.0,.
